Source: PubChem BioAssay (several laboratories)
MLL AF4-AF9 inh: inhibitors of human MLL-AF4/AF9 interaction. AlphaScreen, biotin-AF4 peptide binding to FLAG-AF9. inhibition, % at 10 µM. 350,000 compounds, 0.47% hits. AID 651704;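 active = every replicate reaching a set inhibition limit, whatever the replicate mean, cut at about 25% in these data; inconclusive = mean inhibition reaches that limit but some replicates miss it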;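 note: 0% = plate neutral control median and 100% = total signal loss; the record names both 10 and 1 µM as test concentration; the first replicate is given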
Target sequence (P42568 whole entry, looked up): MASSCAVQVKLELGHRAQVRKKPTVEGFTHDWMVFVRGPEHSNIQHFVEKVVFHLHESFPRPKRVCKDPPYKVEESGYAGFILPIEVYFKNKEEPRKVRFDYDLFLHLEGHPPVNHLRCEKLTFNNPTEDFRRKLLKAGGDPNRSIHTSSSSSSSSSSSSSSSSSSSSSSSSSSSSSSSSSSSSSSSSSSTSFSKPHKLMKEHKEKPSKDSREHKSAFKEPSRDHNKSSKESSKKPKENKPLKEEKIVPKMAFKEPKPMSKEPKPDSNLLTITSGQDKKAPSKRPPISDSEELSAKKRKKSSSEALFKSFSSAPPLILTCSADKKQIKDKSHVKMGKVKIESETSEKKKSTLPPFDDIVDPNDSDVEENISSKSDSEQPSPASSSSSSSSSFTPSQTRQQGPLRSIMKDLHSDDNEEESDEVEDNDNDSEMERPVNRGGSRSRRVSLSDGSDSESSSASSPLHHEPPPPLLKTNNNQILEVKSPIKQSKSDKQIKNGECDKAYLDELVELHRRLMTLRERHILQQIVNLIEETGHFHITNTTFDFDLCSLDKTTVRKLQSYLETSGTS
Vif A3G: inhibitors of Vif binding to APOBEC3G peptide, primary screen, biochemical, TR-FRET, GST-Vif 1-94, biotin-A3G peptide, dose response retest (AID 1117319); inhibition, %; hits with a dose series show IC50 in µM; TR-FRET GST-Vif / biotin-A3G peptide binding; higher % means a stronger effect; test concentration not given here; strong numbers were not always called active; 260,000 compounds, 0.57% hits;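 active = above the screen mean plus three standard deviations and confirmed in dose response; inconclusive = results disagree or hit not tested in dose response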;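 note: Vif residues 1-94 fused to GST binding biotinylated APOBEC3G peptide 110-148; 0% = full assay without inhibitor and 100% = GST in place of GST-Vif; retest series ran down from 100 µM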
Active calls of the source: *; ? = inconclusive; & = joins results of further samples.

SMILES | MLL AF4-AF9 inh | Vif A3G
Cc1ccc(S(=O)(=O)N2CCCCC2)cc1NC(=O)COC(=O)c1cccc(O)c1 | 2.1 | 1%
Nc1ccn(CCCN2CCN(Cc3cccc4ccccc34)CC2)c(=O)n1 | -1.9 | 2%
COc1ccccc1C(=O)Nc1ccc(OCC(=O)N2CCCCC2C)cc1 (centres undefined) | 1.9 | 8%
CCOC(=O)C(C(=O)c1ccccc1)C(c1ccccc1)c1nccc2ccccc12 (centres undefined) | 0.4 | -6%
CCOc1ccc(OCC(=O)OCC(=O)Nc2ccc3[nH]c(=O)[nH]c3c2)cc1 | -1.7 | 8%
O=C1CCN(Cc2ccccc2)C(=O)N1 | -6.6 | 1%
COc1nc(NC2OC(CO)C(O)C(O)C2O)c(N)c(=O)[nH]1 (centres undefined) | -4.8 | -9%
CN1C(=O)NC(=O)C1c1ccccc1 (centres undefined) | -0.2 | -7%
COc1ccc(Cl)cc1NC(=O)CN(C)C(=O)c1cc2c(s1)CCCC2 | -3.4 | 2%
O=C(O)C(CCC(C(=O)O)c1ccccc1)c1ccccc1 (centres undefined) | -4.1 | -12%
O=C1C=CC(=O)N1c1ccc2c(c1)C(NC(=O)C(F)(F)F)c1ccccc1-2 (centres undefined) | 3.3 | -9%
Cc1ccc(N(C)S(=O)(=O)c2cccc(C(=O)N(C)Cc3cnn(-c4ccccc4)c3)c2)cc1 | 0.0 | -5%
Cc1ccc(S(=O)(=O)N2CCCc3ccccc32)cc1 | -2.5 | 4%
O=C(COC(=O)/C=C/c1ccc(F)cc1)NC(=O)NCc1ccccc1 | 4.5 | -1%
O=C(c1ccoc1)N1CCN(c2cc(-c3ccco3)nc3cc(-c4ccccc4)nn23)CC1 | -9.7 | -3%
O=C1C=CC(=Nc2ccc3c(c2)Cc2cc(F)ccc2-3)O1 | -0.6 | -5%
COc1ccc(NC(=O)c2ccccc2NC(=O)C2CCCCC2C(=O)O)cc1 (centres undefined) | -7.1 | 1%
N=NC(=O)c1ccccc1Nc1c(O)[nH]c2ccccc12 | -33 | -7%
Cn1nc(CC#N)c2c(=N)n(N)cnc21 | -4.4 | -7%
O=[N+]([O-])c1ccc(S(=O)(=O)NN=Cc2ccc3c(c2)OCO3)cc1 | 4.9 | -3%
CC(OC(=O)CNC(=O)c1ccccc1)C(=O)Nc1ccc(S(=O)(=O)N2CCOCC2)cc1 (centres undefined) | 2.4 | 4%
COC(=O)CCN1CCC2CC1c1cc(N3CCCCC3)ccc12 (centres undefined) | -0.9 | 0%
O=C(c1cccc(-n2cccc2)c1)N1CCN(S(=O)(=O)c2ccccc2Br)CC1 | 7.3 | -1%
Cc1ccc(C(=O)C2CC2)cc1C | -0.2 | 9%
CC(C)CC1C(=O)N(Cc2cn(CC3CCCCC3)nn2)CCS(=O)(=O)N1Cc1ccc(-c2ccc(F)nc2)cc1 (centres undefined) | -0.7 | 0%
Next part
SMILES | MLL AF4-AF9 inh | Vif A3G
Cc1ccc(NC(=O)N2CCOCC2)cc1NC(=O)N1CCOCC1 | 0.4 | 2%
Cc1c(Cl)sn(-c2ccc(Cl)cc2)c1=O | -6.6 | -6%
COc1ccc(S(=O)(=O)N(C)C[C@H]2OCc3cn(nn3)CCCC(=O)N([C@H](C)CO)C[C@@H]2C)cc1 | -2.8&1.1&-1.5 | 5%
CCN1C(=O)[C@H]2[C@H]3CN=C(SC)N3[C@@](C)(C(=O)OC)[C@H]2C1=O | 0.4 | -3%
CC1CCc2nc3ccc(S(=O)(=O)N4CCC(C(=O)NC5CCCC5)CC4)cc3c(C(=O)O)c2C1 (centres undefined) | 1.2 | 22%
Cc1ccc(NC(=O)CN2C(=O)N/C(=C/c3cc(C)n(-c4ccc(C(=O)O)cc4)c3C)C2=O)cc1 | 2.1 | ?
CC(Sc1ncccn1)C(=O)Nc1ccc2c(c1)OCCO2 (centres undefined) | 0.7 | -5%
CC1CN(C(C)C)C(=S)N(c2ccccc2)C1=O (centres undefined) | -2.7 | 3%
CCCCN1Cc2ccccc2Oc2cc(Br)ccc2S1(=O)=O | -5.7 | 7%
CC(C)OC(=O)N(C)C[C@@H]1OCc2cnnn2CCCC(=O)N([C@H](C)CO)C[C@@H]1C | -3.2&0.7 | 2%
Cc1ccc(-c2nn3c(-c4ccccc4)nnc3o2)cc1 | 4.5 | 2%
C[C@H]1CCCCO[C@H](CN(C)C(=O)C2CCCCC2)[C@@H](C)CN([C@@H](C)CO)C(=O)c2cc(NC(=O)NC3CCCCC3)ccc2O1 | 0.1&-2.1 | 7%
CC(C)c1cc(C(F)(F)F)nc(NNc2nc(C(C)C)cc(C(F)(F)F)n2)n1 | -2.2 | -3%
O=C1NCC(Nc2ccccc2Cl)C(=O)N1 (centres undefined) | -6.2 | -3%
O=S1(=O)CCC(NC(=S)SCc2ccccc2Br)C1 (centres undefined) | -1.8 | -3%
COc1cc(C2c3cc4c(cc3OC(NCc3ccccc3)C2C)OCO4)cc(OC)c1OC (centres undefined) | -0.1 | -3%
Cn1cc(C2OC(=O)c3ccccc32)c2ccccc21 (centres undefined) | 0.0 | -5%
O=C(COC(=O)/C=C/c1ccccc1)NC1CCS(=O)(=O)C1 (centres undefined) | -2.3 | -16%
CCC1([N+](=O)[O-])COC(c2ccc(OC)cc2)OC1 (centres undefined) | -3.8 | 6%
O=C1CCC(CCc2nc3ccccc3[nH]2)(c2ccccc2)C(=O)N1 (centres undefined) | -6.2 | 4%
CSCCC(NC(=O)c1ccc(Cl)cc1Cl)C(=O)N1CCCCCCC1 (centres undefined) | 5.5 | -5%
O=C(CC1Sc2ccccc2NC1=O)NNc1cccc(Cl)c1Cl (centres undefined) | -0.7 | 0%
CCOC(=O)c1ccc(NC(=O)NC2=NCCS2)cc1 | -2.7 | 7%
O=C1C2C3C=CC(O3)C2C(=O)N1N=Cc1ccc2c(c1)OCO2 (centres undefined) | 0.7 | -4%
CC(C)(C)c1nnc(NC(=O)CCC2CCCCC2)s1 | 0.8 | -6%

Among those listed so far, these have a nitro group on carbon:
SMILES | MLL AF4-AF9 inh | Vif A3G
O=[N+]([O-])c1ccc(S(=O)(=O)NN=Cc2ccc3c(c2)OCO3)cc1 | 4.9 | -3%
CCC1([N+](=O)[O-])COC(c2ccc(OC)cc2)OC1 (centres undefined) | -3.8 | 6%

(next part)
SMILES | MLL AF4-AF9 inh | Vif A3G
Cc1cc(C)c(NC(=S)NC(=O)c2ccccc2)cc1C | 0.7 | 4%
COc1ccc(C(=O)COC(=O)c2ccc3c(c2)OCCO3)c(OC)c1 | -4.3 | 5%
O=C(COC(=O)C1(c2ccccc2F)CCCC1)N1CCNC1=O | -5.9 | 0%
CCOC(=O)c1ccc(NC(=O)c2nc[nH]c2C(=O)N[C@H](C)CO)cc1 | -2.2 | 1%
CCCCn1c(SCC(=O)c2c(N)n(C3CC3)c(=O)[nH]c2=O)nc2cc(S(N)(=O)=O)ccc21 | -58 | 0%
C[C@H]1CN([C@@H](C)CO)C(=O)CCCn2cc(nn2)CO[C@@H]1CN(C)S(=O)(=O)c1ccc(-n2cccn2)cc1 | -3.4&-1.0 | -4%
COc1ccc(CC(=O)NNC(=S)NC(=O)c2cc(OC)c(OC)c(OC)c2)cc1 | -1.4 | -4%
CCOC(=O)/C=C1\CC(C(=O)OCC)Oc2c(OC)cccc21 (centres undefined) | 2.2 | 3%
O=C1C(F)=CC(COC(c2ccccc2)(c2ccccc2)c2ccccc2)OC1n1cc(F)c(=O)[nH]c1=O (centres undefined) | 0.8 | 23%
CCCCCC(=O)N1C[C@@H](n2cc(C3CC3)nn2)[C@H](O)C[C@@H]1c1ccc(C)cc1 | -0.2 | 59%
O=C(NC(=S)N1CCCCC1CO)c1cc(Br)ccc1Cl (centres undefined) | -0.3 | -5%
O=S(=O)(Cc1ccccc1)N1CCN(Cc2c(F)cccc2Cl)CC1 | -0.3 | 0%
COc1ccc(C2c3cc4c(cc3OC(N3CCOCC3)C2C)OCO4)c(OC)c1 (centres undefined) | 18 | -1%
O=c1ncn(C2CCCCC2)c(=O)[nH]1 | -0.7 | 4%
Cc1cc(Cl)ccc1OCC(=O)OCC(=O)Nc1cccnc1Cl | -1.9 | 8%
O=C(OCc1cn([C@H]2CN(C(=O)C3CCCCC3)[C@@H](c3ccc(Cl)cc3)C[C@@H]2O)nn1)c1ccccc1 | -2.9 | -3%
COc1cccc(NC(=O)c2cccc(NC(=O)c3ccco3)c2)c1 | 0.1 | -4%
CC(C)CC1C(=O)N(Cc2cn(Cc3ccco3)nn2)CCS(=O)(=O)N1Cc1ccc(-c2cccc(CO)c2)cc1 (centres undefined) | -3.9 | 1%
O=c1onc(-c2ccccc2)n1Cc1ccc([N+](=O)[O-])cc1 | 1.1 | -5%
CC1=C(C(=O)N(C)C)CC(CC(=O)NCCN2CCOCC2)C(=O)N1Cc1ccc(C(C)(C)C)cc1 (centres undefined) | -3.3 | 1%
COc1ccc(S(=O)(=O)Oc2ccccc2C(N)=O)cc1 | -1.6 | -8%
COc1cccc(CC(O)CC2c3c(cc4c(c3OC)OCO4)CCN2C)c1 (centres undefined) | 3.2 | 2%
COc1ccccc1N(CC(=O)NC1CCCC1)S(=O)(=O)c1cccc(C(F)(F)F)c1 | 0.1 | -4%
CCOC(=O)/C=c1/s/c(=C/c2ccc3cc(OC)ccc3c2)c(=O)n1CC(=O)NCC1CCCO1 (centres undefined) | 1.8 | -4%
CCCCCCCCCC1(CC(=O)OCC)SCCN1C(N)=O (centres undefined) | 0.2 | -3%
CCN(C[C@H]1N[C@@](C)(C(=O)OC)[C@H]2C(=O)N(C)C(=O)[C@@H]12)C(=O)c1ccc(C(C)(C)C)cc1 | -0.6 | -2%
CNC[C@@H]1OCc2ccccc2-c2c(n(C)c3ccccc23)C(=O)N([C@H](C)CO)C[C@@H]1C | 1.6&-5.4 | 0%
COc1cc(/C=C/C(=O)OCC(=O)NCCc2ccc(S(N)(=O)=O)cc2)ccc1OCC#N | 0.2 | 0%
O=C(NN=Cc1ccc([N+](=O)[O-])cc1)C1CC1 | 1.9 | 2%
O=C(COC(=O)c1ccc2ncsc2c1)Nc1cc(Cl)ccc1F | -1.3 | -9%

Reformatted: 25 of the compounds above.
| compound | MLL AF4-AF9 inh | Vif A3G |
| --- | --- | --- |
| C[C@H]1CN([C@@H](C)CO)C(=O)CCCn2cc(nn2)CO[C@@H]1CN(C)S(=O)(=O)c1ccc(-n2cccn2)cc1 | -3.4&-1.0 | -4% |
| COc1ccc(CC(=O)NNC(=S)NC(=O)c2cc(OC)c(OC)c(OC)c2)cc1 | -1.4 | -4% |
| CCOC(=O)/C=C1\CC(C(=O)OCC)Oc2c(OC)cccc21 (centres undefined) | 2.2 | 3% |
| O=C1C(F)=CC(COC(c2ccccc2)(c2ccccc2)c2ccccc2)OC1n1cc(F)c(=O)[nH]c1=O (centres undefined) | 0.8 | 23% |
| CCCCCC(=O)N1C[C@@H](n2cc(C3CC3)nn2)[C@H](O)C[C@@H]1c1ccc(C)cc1 | -0.2 | 59% |
| O=C(NC(=S)N1CCCCC1CO)c1cc(Br)ccc1Cl (centres undefined) | -0.3 | -5% |
| O=S(=O)(Cc1ccccc1)N1CCN(Cc2c(F)cccc2Cl)CC1 | -0.3 | 0% |
| COc1ccc(C2c3cc4c(cc3OC(N3CCOCC3)C2C)OCO4)c(OC)c1 (centres undefined) | 18 | -1% |
| O=c1ncn(C2CCCCC2)c(=O)[nH]1 | -0.7 | 4% |
| Cc1cc(Cl)ccc1OCC(=O)OCC(=O)Nc1cccnc1Cl | -1.9 | 8% |
| O=C(OCc1cn([C@H]2CN(C(=O)C3CCCCC3)[C@@H](c3ccc(Cl)cc3)C[C@@H]2O)nn1)c1ccccc1 | -2.9 | -3% |
| COc1cccc(NC(=O)c2cccc(NC(=O)c3ccco3)c2)c1 | 0.1 | -4% |
| CC(C)CC1C(=O)N(Cc2cn(Cc3ccco3)nn2)CCS(=O)(=O)N1Cc1ccc(-c2cccc(CO)c2)cc1 (centres undefined) | -3.9 | 1% |
| O=c1onc(-c2ccccc2)n1Cc1ccc([N+](=O)[O-])cc1 | 1.1 | -5% |
| CC1=C(C(=O)N(C)C)CC(CC(=O)NCCN2CCOCC2)C(=O)N1Cc1ccc(C(C)(C)C)cc1 (centres undefined) | -3.3 | 1% |
| COc1ccc(S(=O)(=O)Oc2ccccc2C(N)=O)cc1 | -1.6 | -8% |
| COc1cccc(CC(O)CC2c3c(cc4c(c3OC)OCO4)CCN2C)c1 (centres undefined) | 3.2 | 2% |
| COc1ccccc1N(CC(=O)NC1CCCC1)S(=O)(=O)c1cccc(C(F)(F)F)c1 | 0.1 | -4% |
| CCOC(=O)/C=c1/s/c(=C/c2ccc3cc(OC)ccc3c2)c(=O)n1CC(=O)NCC1CCCO1 (centres undefined) | 1.8 | -4% |
| CCCCCCCCCC1(CC(=O)OCC)SCCN1C(N)=O (centres undefined) | 0.2 | -3% |
| CCN(C[C@H]1N[C@@](C)(C(=O)OC)[C@H]2C(=O)N(C)C(=O)[C@@H]12)C(=O)c1ccc(C(C)(C)C)cc1 | -0.6 | -2% |
| CNC[C@@H]1OCc2ccccc2-c2c(n(C)c3ccccc23)C(=O)N([C@H](C)CO)C[C@@H]1C | 1.6&-5.4 | 0% |
| COc1cc(/C=C/C(=O)OCC(=O)NCCc2ccc(S(N)(=O)=O)cc2)ccc1OCC#N | 0.2 | 0% |
| O=C(NN=Cc1ccc([N+](=O)[O-])cc1)C1CC1 | 1.9 | 2% |
| O=C(COC(=O)c1ccc2ncsc2c1)Nc1cc(Cl)ccc1F | -1.3 | -9% |

A portion of the library (hit frequency here may not be typical).
